Assay outcomes as filed in PubChem BioAssay.
CSC inhib – blocks cancer stem cells. 300,000 compounds, 1.1% hits. inhibition, % at 7.5 µM. AID 2717. cancer stem cell-like cells viability, luminescence;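 active means mean at 75% or more and at least half the replicates too; inconclusive means mean and replicates disagree; tested in HMLE shEcad cells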;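 further: 0% = median of negative and 100% = median of positive control wells; the first replicate is given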
PABP polyA inh – PABP-poly(A) binding inhibition. P11940. PABP-poly(A) RNA binding, fluorescence polarization. inhibition, % at 35 µM. 290,000 compounds, 1% hits. AID 2014;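 active means 50% or more with normal probe brightness, or confirmed in later tests; inconclusive means above 50% with abnormal brightness, or retests that disagree; inactive means below 50% or failed in later tests; about a fifth of its hits are not listed in these tables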;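 further: calls also rest on retests at 20 µM and on dose response follow-up; controls were probe without protein and protein plus probe with vehicle; some compounds called inactive have numbers as strong as hits; many hits fall short of the cut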
Target sequence (P11940 whole entry, looked up): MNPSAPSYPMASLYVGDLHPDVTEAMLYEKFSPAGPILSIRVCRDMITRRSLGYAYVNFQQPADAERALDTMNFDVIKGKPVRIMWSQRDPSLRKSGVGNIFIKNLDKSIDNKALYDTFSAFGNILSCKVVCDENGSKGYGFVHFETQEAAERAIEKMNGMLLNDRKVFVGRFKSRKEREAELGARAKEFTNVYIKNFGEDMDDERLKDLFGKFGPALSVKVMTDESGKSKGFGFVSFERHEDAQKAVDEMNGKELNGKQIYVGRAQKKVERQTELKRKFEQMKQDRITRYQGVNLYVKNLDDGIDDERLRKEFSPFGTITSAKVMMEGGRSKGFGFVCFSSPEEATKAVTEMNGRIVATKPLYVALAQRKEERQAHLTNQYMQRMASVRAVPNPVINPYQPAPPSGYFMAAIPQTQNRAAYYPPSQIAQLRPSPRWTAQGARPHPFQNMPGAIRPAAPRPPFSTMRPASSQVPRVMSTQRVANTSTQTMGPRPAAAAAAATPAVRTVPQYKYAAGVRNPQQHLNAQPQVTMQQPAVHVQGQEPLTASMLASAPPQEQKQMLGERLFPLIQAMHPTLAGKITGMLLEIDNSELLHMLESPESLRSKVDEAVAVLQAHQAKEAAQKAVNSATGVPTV
eIF4H inh – inhibitors of RNA binding by human eIF4H | Q15056 | eIF4H fluorescence polarization binding assay | inhibition, % at 35 µM | 290,000 compounds, 0.94% hits | AID 2012;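 active means 50% or more with normal probe brightness, or confirmed in later tests; inconclusive means above 50% with abnormal brightness, or retests that disagree; inactive means below 50% or failed in later tests; about a fifth of its hits are not listed in these tables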;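 further: calls also rest on retests at 20 µM and on dose response follow-up; 0% = protein and probe with vehicle and 100% = probe without protein; strong numbers were not always called active; many hits fall short of the cut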
Rce1 inh – blocks yeast Ras-converting enzyme; calls only; 290,000 compounds, 0.27% hits; yeast membranes, quenched prenylated peptide cleavage fluorescence; Q03530;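 active means fall in fluorescence gain of 50% or more versus controls, with final raw signal at or below 3038400; inconclusive means same 50% fall but final raw signal above 3038400; inactive means fall in fluorescence gain under 50%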;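 further: plate controls were neutral control wells for no effect and wells lacking membranes for full effect; tested at 10 µM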
Env fusion inh – blocks HIV Env-driven cell-cell fusion; HeLa-JRFL Env/CEM21 cell fusion, luciferase; inhibition, % at 12.3 µM; 360,000 compounds, 1.1% hits; AID 651610;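 active means mean replicate inhibition score of at least 50 and every replicate individually at or above 50; inconclusive means only one of the two criteria met; inactive means mean below 50 and not all replicates reaching 50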;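 further: 0% = plate neutral controls and 100% = maraviroc near 300 nM; one replicate is shown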
Yeast UUG start – modulators of start codon recognition fidelity in yeast | S. cerevisiae UUG-firefly luciferase reporter, luminescence/redox ratio | activity score, % at 18.7 µM | 350,000 compounds, 0.13% hits | AID 602363;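 active means replicate mean at a twofold rise or more, about +100% in these data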;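 further: firefly luciferase made from a UUG start codon reports start codon fidelity; reporter light over untreated wells divided by growth signal over untreated wells; some hits fall short of that in this replicate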
MT1-MMP act inh – blocks activation of human MT1-MMP | P50281 | HT1080 RFP-PRO-GFP cells, GFP/RFP ratio fluorescence, overnight; percent of plate control window, DMSO zero | GFP/RFP ratio change, % at 20 µM | 360,000 compounds, 0.061% hits;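 active means GFP/RFP ratio change of at least 30% with cell ATP level not reduced by more than half and red fluorescence within 50% of control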; further: strong numbers were not always called active
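Assay system: HT1080 cells carrying an RFP-PRO-GFP reporter | Dosing: Single dose of 20 µM compound, 1% DMSO final | Incubation: Cells overnight before dosing, compound overnight, 37 °C, 5% CO2 | Evaluation: GFP/RFP fluorescence ratio | Control set: DMSO and RFP-L50D-GFP cell wells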
eIF4H inh retest – further read-out of eIF4H inh, marked with its call; inhibition, %; compound at 20 µM; confirmation average;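 mean of two retest wells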
PABP polyA inh retest – second read-out of PABP polyA inh, no call of its own (marks repeat the call); inhibition, %; compound at 20 µM; confirmation repeats;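 mean of two retest wells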
MT1-MMP act inh RFP – also measured in MT1-MMP act inh; calls as there; RFP signal change, %; measured here: RFP expression control read;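 0 = vehicle wells; hits needed this value within 50% of zero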
* marks the source's active call; other numbers are inactive results; i = inactive; ? = inconclusive; . = no result given; & = joins results of further samples.

SMILES	CSC inhib	PABP polyA inh	eIF4H inh	Rce1 inh	Env fusion inh	Yeast UUG start	MT1-MMP act inh	MT1-MMP act inh RFP	others
CC(=O)c1c(C)nn(-c2ccccc2)c1C	-2	-2	6	i	-10	.	1	-3
Nc1nc(-c2cccnc2)nn1C(=O)c1ccc(F)cc1	.	2	-8	i	5	-3	0	5
O=C(CN1C(=O)C2CC=CCC2C1=O)NCC1COc2ccccc2O1 (stereo not given)	-8	4	3	i	.	.	1	1
COc1ccc(CCNC(=O)/C=C/c2ccc(S(=O)(=O)N3CCOCC3)cc2)cc1	4	.	.	.	.	-4	1	-3
C[C@@H]1CN([C@@H](C)CO)C(=O)CCCn2cc(nn2)CO[C@H]1CN(C)C(=O)c1ccc2ccn(C)c2c1	.	.	.	.	-10	-10&15	2	1
Cn1ccnc1C1CCCCN1C(=O)c1cc(COc2ccc(F)cc2Cl)on1 (stereo not given)	-4	-4	-2	i	4	.	7	3
CCn1cc(/C=N\NC(=O)c2ccc(F)cc2)cn1	-1	17	51	i	11	.	1	3	eIF4H inh retest=12;PABP polyA inh retest=42
Nc1ncnc2c1ncn2[C@@H]1O[C@H](C(=O)N2CCSC2)[C@@H](O)[C@H]1O	.	.	.	.	4	-11	0	-2
O=C(NNC(=O)c1cc(Br)c(Br)s1)c1ccncc1	.	.	.	.	-8	-5	0	-1
CC(C)=CCN1CCN(Cc2nc(-c3ccc(F)cc3)cs2)CC1CCO (stereo not given)	.	-3	0	i	20	-3	13	1
Cc1ccc2cc(C#N)c(N3CCN(C)CC3)nc2c1	-8	-6	2	i	.	-12	-3	-5
Cc1ccnc(NC2OC(=O)c3ccccc32)c1 (stereo not given)	0	6	-8	i	.	-12	5	10
COc1ccc(C2CCc3cc4c(cc3C2=NOC(C)=O)OCO4)cc1OC (stereo not given)	.	.	.	.	3	0	-4	-20
O=c1oc(CCO)cc2ccc(C#Cc3ccsc3)cc12	6	.	.	.	-253	-12	7	-2
Cc1ccccc1CNC(=O)/C=C\C(=O)O	11	0	-1	i	.	.	4	6
CCOc1cc(C2C3=C(CCCC3=O)Nc3ccc4ncccc4c32)ccc1O (stereo not given)	8	5	0	i	3	.	4	-4
CCCN1CCC(=NNC(=O)CSc2cc(C)c(Br)cc2C)CC1	21	3	1	i	-7	-2	2	8
Cc1cc(C)c(NC(=O)CCc2c(C)noc2C)c(C)c1	-9	.	.	.	-3	-21	2	6
COc1ccc(N(C)C(=O)c2cc3c(Cl)nc4ccccc4c3s2)cc1	.	-10	-17	i	3	.	-10	-12
Cc1ccc(-c2ccc(/C=N\NC(=O)c3cc4c(ccc5ccccc54)o3)o2)cc1[N+](=O)[O-]	-3	2	-7	i	.	-2	-3	-1
Cc1sc2ncn(CC(=O)N(C)C3CCCCC3)c(=O)c2c1C	-10	.	.	i	-1	-4	0	5
C/C(=N\NC(=S)NCc1ccccc1)c1ccco1	-17	-11	-2	i	7	.	1	4
O=C(c1cccs1)N1CCN(Cc2ccccc2)CC1	-1	6	7	i	20	.	-2	4
COc1cc(C(c2oc(CO)cc(=O)c2O)c2oc(CO)cc(=O)c2O)cc(OC)c1OC	-7	6	-23	i	-1	.	2	4
O=C(CC1SCCNC1=O)Nc1cccc(Cl)c1 (stereo not given)	-9	-5	-12	.	-6	8	-3	-1
Cc1c(O)cc2n(c1=O)-c1ccccc1C2(C)C	.	-2	0	.	-5	6	1	1
COCC1CCN(C(=O)c2ccc(OC3CCN(Cc4ccccn4)CC3)cc2)C1 (stereo not given)	0	-9	-7	i	1	-3	-2	2
NC(=O)c1cc(S(=O)(=O)NC2CCCCC2)co1	3	9	-9	i	0	6	4	3
Cc1nnc2c(N3CCN(CCO)CC3)nc3ccccc3n12	-2	-3	-9	i	-38	-17	3	8
CC(C)NC(=O)c1ccc(CN2CCC(Cc3ccccc3)CC2)cc1	-15	1	8	i	8	-3	4	-2
O=C(OCC#CCSc1nnc(-c2cccc3ccccc23)o1)c1cccs1	-5	6	-5	i	-76	-28	11	1
CC(C)CN(C(=O)c1cccc(S(=O)(=O)N2CCCCC2)c1)C1CCS(=O)(=O)C1 (stereo not given)	-2	7	-8	i	1	-15	1	2
Cc1cc(C)nc(NC2=NCC(=O)N2c2cccc(Cl)c2)n1	3	-3	-3	i	i	-17	1	6
COC(=O)c1cc(OC)c(OC)cc1NC(=O)Cn1nnc(-c2ccccc2Cl)n1	-14	3	-3	i	23	.	0	2
Cc1c(NC(=O)C(C)Sc2n[nH]c(N)n2)c(=O)n(-c2ccccc2)n1C (stereo not given)	-25	6	-3	i	.	-8	3	7
COc1ccc(OCCCC(=O)OCC(=O)Nc2ccc(Cl)cn2)cc1	-10	.	.	i	27	-16	-6	1
Cc1nc2ccccc2c(=O)n1NC(=O)c1ccccc1Cl	-1	2	-3	i	-16	-6	4	0
CC(CC(F)(F)F)N1CCC(n2nccc2NC(=O)CCOc2ccccc2)CC1 (stereo not given)	-2	14	-8	i	15	-22	-1	2
CCOC(=O)[C@H]1Nc2ccc(Cl)cc2[C@@H]2[C@H]1C1CC(c3ccccc31)N2C(=O)OCc1ccccc1 (stereo not given in full)	.	.	.	.	?	-14	-5	-13
COc1ccc(N(C(=O)c2snc(C(N)=O)c2N)C(C(=O)NCc2ccc(F)cc2)c2ccc(C)o2)c(OC)c1 (stereo not given)	-5	-1	34	i	4	-15	-10	-8

Ordered by molar mass (highest first): 15 of the compounds above.
SMILES	CSC inhib	PABP polyA inh	eIF4H inh	Rce1 inh	Env fusion inh	Yeast UUG start	MT1-MMP act inh	MT1-MMP act inh RFP	others
COc1ccc(N(C(=O)c2snc(C(N)=O)c2N)C(C(=O)NCc2ccc(F)cc2)c2ccc(C)o2)c(OC)c1 (stereo not given)	-5	-1	34	i	4	-15	-10	-8
CCOC(=O)[C@H]1Nc2ccc(Cl)cc2[C@@H]2[C@H]1C1CC(c3ccccc31)N2C(=O)OCc1ccccc1 (stereo not given in full)	.	.	.	.	?	-14	-5	-13
COc1cc(C(c2oc(CO)cc(=O)c2O)c2oc(CO)cc(=O)c2O)cc(OC)c1OC	-7	6	-23	i	-1	.	2	4
CC(C)CN(C(=O)c1cccc(S(=O)(=O)N2CCCCC2)c1)C1CCS(=O)(=O)C1 (stereo not given)	-2	7	-8	i	1	-15	1	2
COCC1CCN(C(=O)c2ccc(OC3CCN(Cc4ccccn4)CC3)cc2)C1 (stereo not given)	0	-9	-7	i	1	-3	-2	2
O=C(OCC#CCSc1nnc(-c2cccc3ccccc23)o1)c1cccs1	-5	6	-5	i	-76	-28	11	1
Cc1c(NC(=O)C(C)Sc2n[nH]c(N)n2)c(=O)n(-c2ccccc2)n1C (stereo not given)	-25	6	-3	i	.	-8	3	7
CC(C)NC(=O)c1ccc(CN2CCC(Cc3ccccc3)CC2)cc1	-15	1	8	i	8	-3	4	-2
Cc1sc2ncn(CC(=O)N(C)C3CCCCC3)c(=O)c2c1C	-10	.	.	i	-1	-4	0	5
Cc1nc2ccccc2c(=O)n1NC(=O)c1ccccc1Cl	-1	2	-3	i	-16	-6	4	0
Cc1nnc2c(N3CCN(CCO)CC3)nc3ccccc3n12	-2	-3	-9	i	-38	-17	3	8
O=C(c1cccs1)N1CCN(Cc2ccccc2)CC1	-1	6	7	i	20	.	-2	4
O=C(CC1SCCNC1=O)Nc1cccc(Cl)c1 (stereo not given)	-9	-5	-12	.	-6	8	-3	-1
C/C(=N\NC(=S)NCc1ccccc1)c1ccco1	-17	-11	-2	i	7	.	1	4
NC(=O)c1cc(S(=O)(=O)NC2CCCCC2)co1	3	9	-9	i	0	6	4	3

Later entries:
SMILES	CSC inhib	PABP polyA inh	eIF4H inh	Rce1 inh	Env fusion inh	Yeast UUG start	MT1-MMP act inh	MT1-MMP act inh RFP	others
CSc1ccc(C(=O)C2CCCN(C(=O)Cn3cnnn3)C2)cc1 (stereo not given)	-1	11	13	i	.	-6	3	3
O=C(N(c1ccccn1)c1ccccn1)C12CC3CC(CC(Cl)(C3)C1)C2	-16	-3	-6	i	73*	-7	6	7
CCc1ccc(C(=O)C(C)OC(=O)c2nn(C)c(=O)c3ccccc23)cc1 (stereo not given)	6	.	.	i	-5	-17	12	-1
COCCCNC(=O)CCc1ccccc1	0	10	7	i	7	.	1	3
CC(=O)Nc1ccc(S(=O)(=O)Nc2ccc3nc(C)sc3c2)cc1	-11	.	.	.	43	4	-4	-27
COc1cccc(C(NC(=O)c2ccccc2F)NC(=O)c2ccccc2F)c1	-11	-9	-8	i	33	-1	4	2
c1ccc(Cn2ncc3c(N4CCN(C(c5ccccc5)c5ccccc5)CC4)ncnc32)cc1	45	-1	-5	i	11	-19	-2	-7
Cc1cccc(C(=O)OCC(=O)Nc2nccs2)c1	.	2	-3	i	-16	-1	5	3
COc1cccc(-c2cnc(C(O)c3ccc(OC)c(F)c3)[nH]2)c1 (stereo not given)	.	.	.	.	-2	-21	6	0
O=C(CN1C(=O)NC2(CCc3ccccc32)C1=O)NCc1ccccc1Cl (stereo not given)	-12	.	.	.	.	1	4	3
O=C(COc1ccc(Cl)cc1)NCCc1ccccn1	0	-12	2	i	-3	-12	6	4
Cc1nn(C)cc1C(=O)Nc1c(C)nn(Cc2ccccc2Cl)c1C	-11	2	3	i	.	-1	4	0
Cc1c(C(=O)NCCN(C)C)n(C)c(=O)c2ccccc12	.	.	.	.	20	-7	1	3
Cc1ncsc1CCOC(=O)c1ccc([N+](=O)[O-])cc1	-8	-2	-13	i	-5	.	2	-1
O=C(CNc1cccc2ccccc12)N/N=C/c1ccc([N+](=O)[O-])cc1	4	3	-3	i	23	-2	1	8
COc1cccc(NC(=S)NCc2ccncc2)c1	-30	10	-1	i	13	.	-1	1
COc1ccc(N(C(=O)c2cc3ccccc3oc2=O)C2C=CS(=O)(=O)C2)c(OC)c1 (stereo not given)	-11	2	-15	i	-1	.	-1	0
Cc1ccc(/C(N)=N/OC(=O)CCC2CCCCC2)cc1	-4	-5	2	i	-69	-15	2	5
O=C(CN1CCN(C(=O)C2CCCO2)CC1)Nc1ccc(Cl)c(Cl)c1 (stereo not given)	-1	-4	-6	i	1	-22	-1	1
Cc1ccc(S(=O)(=O)c2c(C(=O)c3ccccc3)cnc3cc4c(cc23)OCCO4)cc1	11	14	0	i	28	.	-1	-11
CC(C)(C)C1CCC2(CC1)C(Nc1cccc(C(F)(F)F)c1)=NC(=S)N2CC#N (stereo not given)	-9	-3	-4	i	39	-13	-31	-35

A portion of the library; the hit share may differ from the screen's.
